Source: PubChem BioAssay (National Center for Advancing Translational Sciences (NCATS))
Vaccinia mCherry – vaccinia inhibition (mCherry reporter); 310,000 compounds, 0.63% hits; Potency, µM (series often up to 36.5 µM), for inactives: at the top dose activity change, negative = inhibition, actives largely listed as inhibitors; Vaccinia virus mCherry reporter infection, fluorescence; about a quarter of the inactives have no number; active = well fitted inhibition curve with a large enough effect; inconclusive = small, poorly fitted or top-dose-only effect; inactive = no such curve, though single readings can be large or run the other way; tested in A549 cells; also: nearly all actives have a fitted effect of over 35% in size; inactives centre near -10
VACV Venus inh – inhibitors of vaccinia virus (Venus reporter). Vaccinia virus Venus reporter expression, fluorescence. Potency, µM (titrated, usually from 36.5 µM), for inactives: top-dose activity change, negative = inhibition, actives largely listed as inhibitors. 330,000 compounds, 0.46% hits. AID 720580; active means well fitted inhibition curve with a large enough effect; inconclusive means small, poorly fitted or top-dose-only effect; inactive means no such curve, though single readings can be large or run the other way; tested in A549 cells; also: nearly all actives have a fitted effect of over 30% in size; inactives centre near -10
Numbers without * were called inactive; i = inactive; ? = inconclusive; · = not tested or not shown; & = joins results of further samples; [ ] = another dose, or the depositor's remark. % is scaled to controls: 0 for no effect and ±100 for the full control effect; potency is read from the fitted curve at half-maximal effect.

canonical_smiles	Vaccinia mCherry	VACV Venus inh
CN1C[C@@H]2C(c3ccc(Cl)nc3)C3(c4cccnc4)CC2(C3)[C@H]1c1ccccc1 (some centres not stated)	-6%	-7%
COc1ccc(C2=NC3(CCCCC3)N(CC(=O)Nc3ccc(C(C)C)cc3)C2=O)cc1	-9%	-18%
COc1ccc(OC)c(N(CC(=O)N2CCCC2)S(=O)(=O)c2ccc(C)cc2)c1	?	3%
COc1ccccc1NC(=O)c1cc(S(=O)(=O)NCCc2ccccc2)ccc1F	-4%	-5%
CC1(C(=O)NCc2ccc(Cl)c(Cl)c2)Oc2cccnc2NC1=O (configuration not stated)	-6%	-3%
O=C(CSc1nnc(COc2cccc3cccnc23)o1)N1CCc2ccccc21	-18%	13%
O=C(C(=O)N1CCN(c2ccccc2)CC1)c1c[nH]c2ccccc12	i	-9%
O=C(Cc1ccccc1)N/N=C/c1ccc(-c2ccc([N+](=O)[O-])cc2)o1	-11%	-10%
Cc1nc(Nc2ccccc2C(F)(F)F)sc1C(=O)N(C)C	-29%	-14%
COCCN(Cc1cc2cc(C)ccc2nc1Cl)C(=O)Nc1ccccc1C	-13%	-4%
CCOc1ccccc1NC(=O)Cn1c(=O)n(-c2ccccc2)c(=O)c2oc3ccccc3c21	i	-2%
CCOC(=O)C1=CN(CC)S(=O)(=O)NC1c1ccc2ccccc2c1 (configuration not stated)	-20%	-7%
COC(=O)c1ccc(CSC2=NC[C@@H]3[C@@H]4C(=O)N(C)C(=O)[C@@H]4[C@](Cc4ccccc4)(C(=O)OC)N23)cc1	i	-9%
CCc1nn(C(C)C(=O)NCCN2CCCCCC2)c(=O)c2cc3occc3n12 (configuration not stated)	i	-11%
CS(=O)(=O)N(CC(=O)N/N=C/c1ccco1)c1ccccc1Br	-14%	-6%
COC(=O)CC1c2ccccc2S(=O)(=O)N1Cc1ccccc1 (configuration not stated)	i	7%
Cc1ccc(N2C(=O)CC(N(CCc3ccccc3)C(=S)Nc3ccc(N(C)C)cc3)C2=O)cc1 (configuration not stated)	?	?
CCCc1cc(C(=O)NCc2ccccc2)no1	4%	-3%
O=C(O)c1cccc(S(=O)(=O)Nc2ccc3[nH]c(=O)[nH]c3c2)c1	i	-14%
Cn1c(=S)n(/N=C/c2ccc3c(c2)OCO3)c2ccccc21	·	-6%
C=CCn1c(SCC)nc2ccccc2c1=O	14%	-14%
CCN1C(=O)[C@H]2[C@@H](c3ccc(C)cc3)N3C(=O)N(c4ccccc4)C(=O)[C@@]3(Cc3ccc(Cl)cc3)[C@H]2C1=O	i	-5%
COc1cccc(-c2cc(NC=O)c3ncc(-c4cc(OC)c(OC)c(OC)c4)n3c2)c1	?	?
COc1ccc(CCNC(=O)C(F)(F)F)cc1S(N)(=O)=O	i	-5%
O=[N+]([O-])c1ccc(Cl)c(CN2CCN(c3ncc(Cc4ccccc4)cn3)CC2)c1	?	?
Fc1cccc(CN2CCN(c3nc4nonc4nc3NC3CC3)CC2)c1	-3%	0%
CCN1C(=O)N[C@@H](CCc2ccccc2)C(C(C)=O)=C1C	i	-2%
N#CC1(NC(=O)COC(=O)CN2C(=O)c3ccccc3C2=O)CCCCC1	-7%	1%
CC(=O)Nc1ccc(C(=O)c2ccccc2)cc1	·	-16%
O=C(Nc1c2c(nn1-c1ccc(F)cc1)CS(=O)(=O)C2)c1ccc(S(=O)(=O)N2CCOCC2)cc1	i	-5%

Sorted by SMILES length (rising): three of the compounds above
canonical_smiles	Vaccinia mCherry	VACV Venus inh
CC(=O)Nc1ccc(C(=O)c2ccccc2)cc1	·	-16%
N#CC1(NC(=O)COC(=O)CN2C(=O)c3ccccc3C2=O)CCCCC1	-7%	1%
O=C(Nc1c2c(nn1-c1ccc(F)cc1)CS(=O)(=O)C2)c1ccc(S(=O)(=O)N2CCOCC2)cc1	i	-5%

Continued.
canonical_smiles	Vaccinia mCherry	VACV Venus inh
COc1cc(C2Oc3nc(SC)nnc3-c3ccccc3N2C(C)=O)cc(Cl)c1OC (configuration not stated)	-12%	-1%
Nc1ncnc2c1ncn2[C@@H]1O[C@H](COP(=O)(O)OP(=O)(O)OP(=O)(O)O)[C@@H](O)[C@H]1O	-10%	-9%
COc1ccccc1C(=O)OCCN1CCOCC1	?	-13%
O=C1Nc2cc(C(=O)N3CCOCC3)ccc2SC1N1CCOCC1 (configuration not stated)	-11%	-4%
COc1ccc(OCC(=O)NNC(=O)c2cc3ccccc3o2)cc1	-8%	-8%
CCCCCNC(=O)C(c1ccccc1)n1c(=O)c(-c2cc3ccccc3[nH]2)nc2ccccc21 (configuration not stated)	-26%	-27%
Nn1c(SCC(=O)Nc2nccs2)nnc1-c1ccco1	-7%	-4%
COc1ccc(NC(=O)C(=O)NCCCn2ccnc2)cc1	-13%	-6%
CCN(CC(=O)Nc1c(F)cccc1F)C(=O)c1csc2c1CCCC2	i	-13%
CC(C)c1cccc(C(C)C)c1O	-4%	-16%&-1%
Cc1cc(C(F)(F)F)c2c(N)c(C(=O)NC3CC3)sc2n1	-15%	-9%
CSCCC(NC(=O)c1ccc([N+](=O)[O-])cc1Cl)C(=O)OC1CCCCC1=O (configuration not stated)	-26%	-10%
CCOC(=O)/C(N)=C/c1ncc(C(F)(F)F)cc1Cl	·	-9%
Cc1cccc(-n2ncc3c(N(C)C4CCCCC4)ncnc32)c1	i	-21%
CCCCC(=O)Nc1ccc(C(=O)NNC(=O)CCCOc2ccc(Cl)cc2Cl)cc1	i	-10%
COc1cccc(C(=O)NC2CCN(CC(=O)Nc3ccccc3Cl)CC2)c1	-28%	-22%
C=CC[C@H](CC(=O)N(CCO)Cc1ccccc1)C(=O)NCCOC(=O)[C@H](CC=C)CC(=O)OC(C)(C)C	i	0%
Nc1nonc1-c1nc2ccccc2n1CC(=O)O	i	2%
O=C(Cc1ccccc1F)NCC(c1ccco1)N1CCCCC1 (configuration not stated)	-11%	-8%
C/C=C/C=C/C(=O)N1CC2(CC(c3cccc(NC(=O)/C=C/C)c3)=NO2)C[C@@H]1C(N)=O (some centres not stated)	-7%	3%
O=C(Nc1ccc(OC(=O)N2CCCC2)cc1)N1CCOCC1	-17%	-1%
C[C@]12CC[C@@H](O)C[C@@H]1CC[C@@H]1[C@@H]2CC[C@]2(C)C=CC[C@@H]12	i	-15%
COc1ccc(C2NC(=O)N(C)C3=C2C(=O)CC(C)(C)C3)cc1OC (configuration not stated)	i	-4%
CCOCCCNS(=O)(=O)c1ccc2c(c1)CCN2C(C)=O	-9%	0%
O=C(NC(=S)Nc1ccccn1)c1ccccc1	i	-13%
Cn1cccc1/C=C1\SC(=S)N(NC(=O)c2cccc(Cl)c2)C1=O	-12%	-5%
CCCN(C(=O)CSCc1c(C)noc1C)c1c(N)n(Cc2ccccc2)c(=O)[nH]c1=O	-23%	-3%
Oc1ccc(Cl)cc1CNCc1ccc(Cl)cc1	-24%	-21%
CCN1C(=NCC2CC2)N[C@@H](c2cccc(C(F)(F)F)c2)C(C(=O)OC)=C1C	-8%	-25%
O=C(CN1C(=O)NC2(CCCCCCC2)C1=O)Nc1cccc(Br)c1	i	-14%
Cc1cccc(NC(=O)c2ccc(C)c(S(=O)(=O)N3CCCCC3)c2)n1	i	-13%
CCN(c1cccc(C)c1)S(=O)(=O)c1ccc2c(c1)N(C(C)=O)CCS2	1%	-2%
COc1ccc(-c2ccc3oc(-c4ccc(OC)cc4)c(C#CCO)c3c2)cc1	-26%	?
Cc1c(Cl)cccc1NS(=O)(=O)c1cccc2nsnc12	-7%	-7%
CSc1nc(-c2ccccc2)nn1S(=O)(=O)c1ccc(Cl)cc1	-13%	-5%
Cc1[nH]c2ccccc2c1/C=N/NC(=O)CNC(=O)c1ccccc1	?	-22%
CCCCN1C(N)=NC[C@H]1Cc1ccc(O)cc1	i	-5%
Cc1cc(C(O)c2ncc(-c3ccccc3C)[nH]2)ccc1F (configuration not stated)	1%	-6%
CC1CCCCC1NC(=O)CN1CCC(NC(=O)c2cccc(F)c2)CC1 (configuration not stated)	-9%	0%
O=C(Nc1cc(Cl)ccc1N1CCOCC1)C1=COCCO1	-9%	?
Cc1ccc(NC(=O)CCc2nc3cccnc3n2-c2ccccc2)cc1Cl	-19%	-10%
COc1cc(C(=O)Nc2cccc(-c3nc4cc(C)ccc4o3)c2C)cc(OC)c1OC	·	-14%
O=Nc1[nH]c(=O)c(/C=C(\O)c2ccccc2)nc1NO	?	?
COc1ccc(NC(=O)/C=C/c2ccc(F)cc2)cn1	-16%	-7%
CCOc1ccc(C(=O)Nc2ccc3c(c2)OCCO3)cc1	i	-16%
O=c1ccc(-c2n[nH]c(=S)n2-c2ccc(F)c(Cl)c2)n[nH]1	i	-9%
Cc1cc(C)c(S(=O)(=O)NCCCN2CCOCC2)cc1Br	-16%	-16%
CC1(C)C2CCC1(CS(=O)(=O)NCc1ccc(S(N)(=O)=O)cc1)C(=O)C2 (configuration not stated)	-17%	-8%
CC(C)(C)c1ccc(C(=O)NC2(C(F)(F)F)NC(=O)N(CCc3ccccc3)C2=O)cc1 (configuration not stated)	-25%	-17%
CCCCn1c(N)c(N(CCC(C)C)C(=O)c2ccccc2C)c(=O)[nH]c1=O	-23%	-3%
O=C(CSc1nnc(Nc2ccccc2F)s1)NCc1ccco1	-23%[1.46 µM]	-11%
Cc1cccc(C(=O)c2ccccc2C(=O)O)c1	i	-5%
O=S1(=O)CC(N2CCCC2)CN1Cc1cn(Cc2ccc(F)cc2)nn1 (configuration not stated)	i	-1%
COc1cc(F)ccc1-c1csc(C(O)c2ccccc2)n1 (configuration not stated)	0%	-3%
CCCc1cc(=O)oc2cc(OC(C)C(=O)NCCCn3ccnc3)ccc12 (configuration not stated)	-14%	-8%
O=C(CSc1nnc(NC(=O)Cc2ccccc2)s1)NCc1ccco1	i	-8%
Cc1cc(C(=O)N2CC(C)CC(C)C2)n(-c2ccccc2)n1 (configuration not stated)	0%	-19%
O=C(N/N=C/c1ccc(F)cc1)c1cccc(NC(=O)c2ccccc2Cl)c1	-5%	6%
CCn1c(NC)cc(=O)n(C)c1=O	1%	2%
Cc1ccc(C(=O)N2CCC(C)CC2)cc1NC1=NC2CS(=O)(=O)CC2S1 (configuration not stated)	-9%	3%

Carrying on:
canonical_smiles	Vaccinia mCherry	VACV Venus inh
Cc1ccc(CS(=O)(=O)c2ncc(Cl)c(C(=O)Nc3ccc(OC(F)F)cc3)n2)cc1	-16%	-30%
COc1ccc(OC2OC3COC(C)(C)OC3C(O)C2NC(C)=O)cc1 (configuration not stated)	·	1%
CN(C)CC(c1ccccc1)c1ccccc1	i	-7%
O=C(c1cc2c(s1)CCCC2)n1cccn1	-5%	2%
Cc1cccn2c(=O)nc(SCC(=O)NCCc3ccccc3)nc12	i	-3%
CC1C(=O)CCC1(C(=O)O)c1ccccc1 (configuration not stated)	-10%	-14%
COc1cc(OC)cc(C2=Cc3ccc(OC)cc3C(CC(C)=O)N2c2ccc(C#CC3(N)CCCCC3)cc2)c1 (configuration not stated)	-27%	-22%
CCn1c(SCC(=O)NC2CCCC2)nnc1C(C)NC(=O)c1ccccc1F (configuration not stated)	-12%	-1%
COc1cccc(N=C2CC(C)(C)CC(=O)/C2=C(/O)c2ccccc2)c1	-11%	-3%
CC(C)[C@H](CO)Nc1nc(NCc2ccc(S(N)(=O)=O)cc2)c2ncn(C(C)C)c2n1	?	?
Cc1cc(NC(=O)c2ccc(Cl)cc2)cc(C)c1OCC(=O)N1CCOCC1	-2%	-15%
CN(CC(=O)Nc1cccc(F)c1)C(=O)Cc1n[nH]c(=O)c2ccccc12	-5%	-1%
O=S(=O)(c1ccc(Br)s1)N1CCN(CCOc2ccccc2)CC1	-10%	-27%
CCOC(=O)C1=C(CNCc2ccc(C)cc2)NC(=O)NC1c1ccc(OC)cc1 (configuration not stated)	·	?
CCN(CC)c1ccc(/C=C2\C(=O)NC(=S)N(c3ccc(OC)cc3OC)C2=O)o1	-14%	148%[activator]

In the list so far, these have a nitro group on carbon.
canonical_smiles	Vaccinia mCherry	VACV Venus inh
O=C(Cc1ccccc1)N/N=C/c1ccc(-c2ccc([N+](=O)[O-])cc2)o1	-11%	-10%
O=[N+]([O-])c1ccc(Cl)c(CN2CCN(c3ncc(Cc4ccccc4)cn3)CC2)c1	?	?
CSCCC(NC(=O)c1ccc([N+](=O)[O-])cc1Cl)C(=O)OC1CCCCC1=O (configuration not stated)	-26%	-10%

Remaining list, next part:
canonical_smiles	Vaccinia mCherry	VACV Venus inh
CC(C)N=C(NC#N)SCC(=O)NC(C)(C)C	·	1%
CCOC(=O)C1CCCN(Cc2cn(C)nc2-c2ccc3c(c2)OCCO3)C1 (configuration not stated)	i	-21%
O=C1C=C(NCCN2CCOCC2)CC(c2ccccc2)C1 (configuration not stated)	-8%	-14%
O=C(COC(=O)CCc1ccc(S(=O)(=O)N2CCOCC2)cc1)NCc1ccc(Cl)cc1	i	-7%
COc1cccc(C(=O)N2CCN(Cc3ccccc3C(F)(F)F)CC2)c1	-1%	-17%
CCSc1nnc(NC(=O)Cc2ccc(OC)cc2)s1	-25%	-15%
Cc1ccc(S(=O)(=O)N2C[C@H]3n4c(=O)ccc(=O)n4C[C@H](OC(=O)NC4CC4)[C@@]3(O)C2)cc1	-6%	-13%
